fixLJ activator: B. multivorans fixK reporter activation; z-score (concentration not given with the values); 29,000 compounds, 0.3% hits; AID 1918990; B. multivorans fixK-promoter GFP reporter, 18 h; active compounds read high;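 active means replicate mean overnight rise in green fluorescent reporter signal, 3 or more SD over negative controls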;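 further: score is relative to vehicle wells of the plate; 300 nL library stock went into each well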
Numbers without * were called inactive; & = joins results of further samples. Some of the compounds tested; count on the stated rates, not on these rows.

| mol | fixLJ activator |
| --- | --- |
| COc1cc(NC(=O)Cn2nc(C)cc2N)ccc1NC(=O)C(C)(C)C | -0.27 |
| COc1cccc2c1OCC(C(=O)NCC1(c3cccc(F)c3)CCOCC1)C2 (stereo not drawn) | 0.71 |
| CCOC(=O)CCn1cnc2onc(-c3cc(OC)ccc3Cl)c2c1=O | -0.97 |
| CCc1nn2c(-c3ccccc3OC)ccnc2c1-c1ccc(F)cc1 | 2.23 |
| COc1cccc(-c2nc(-c3ccc(-c4ccccc4)nc3OC)no2)c1 | 1.67 |
| COc1cc(OC)c(Nc2cc(C)nc3ncnn23)cc1Cl | -0.03 |
| CCn1cc(C(=O)N2CCN(c3ccccc3F)CC2)c(=O)c2cc(S(=O)(=O)N(C)C3CCCCC3)ccc21 | -1.62 |
| COc1nc2c(cc1CNc1ccc(C(C)=O)cn1)C(=O)N(C1CCCC1)C2 | 1.62 |
| CCCC1C=CCN1C(=O)c1coc(COc2ccc(OC)cc2)n1 (stereo not drawn) | -0.95 |
| O=C(CCc1ccccc1)NCc1cc2n(n1)CCCN(C1CCCCC1)C2 | -0.17 |
| CC(CN1CCCC1)C(=O)N1CCC(c2nccn2Cc2ccncc2)CC1 (stereo not drawn) | -0.69 |
| Cc1noc(C)c1S(=O)(=O)N1CCC(C(=O)N2CCN(c3ccccc3)CC2)CC1 | -1.08 |
| COc1ccc(OC)c(NC(=O)N2c3ccccc3Sc3ccccc32)c1 | -1.65 |
| CCCOc1ccc(-c2nc3ccccc3c(=O)o2)cc1 | -1.39 |
| CCc1cccc(CC)c1N(COC)C(=O)Cn1c(CC)nc2ccccc21 | -0.26 |
| CCNC(=O)CN1CCC(O)[C@]2(CCCN(C(=O)c3ccc(C)cc3C)C2)C1 (stereo partly drawn) | -0.82 |
| Cc1cc(O)c2c(C)c(CC(=O)NCc3ccccc3Cl)c(=O)oc2c1 | -1.87 |
| COCCCNC(=O)CSc1nc2nc(C)c(Cc3ccccc3Cl)c(C)n2n1 | -1.13 |
| COC(=O)CNC(=O)C1CCN(S(=O)(=O)c2cccc3nsnc23)CC1 | -0.12 |
| Cc1cccc(NC(=O)CCNC(=O)CN(C)Cc2ccccc2)c1 | -3.2 |
| CC(C)CCN1C(=O)CCC2CN(C(=O)c3nc(N)nc4c3CCCC4)CCC21 (stereo not drawn) | -0.42 |
| O=C(Cn1ccnc1)N1CC2CCC(C1)N(Cc1ccccn1)C2=O (stereo not drawn) | -2.4 |
| COc1cc(NC(=O)c2cccc3c2C(=O)N(C2CCCCC2)C3)cc(OC)c1 | -1.69 |
| CCOc1ccc(NS(=O)(=O)c2ccc3[nH]cc(C(=O)NCc4ccco4)c(=O)c3c2)cc1 | -2.05 |
| CC(C)(C)NC(=O)CN1CCN(C(=O)C2CC(=O)OC23CCCC3)CC1 (stereo not drawn) | -1.39 |

2 of the compounds above, with each value named:
> COC(=O)CNC(=O)C1CCN(S(=O)(=O)c2cccc3nsnc23)CC1
  fixLJ activator: -0.12
> Cc1cccc(NC(=O)CCNC(=O)CN(C)Cc2ccccc2)c1
  fixLJ activator: -3.2

Next part.
| mol | fixLJ activator |
| --- | --- |
| CCCc1nc2ccccc2n1CC(O)COc1ccc(C(=O)OC)cc1 (stereo not drawn) | -2.64 |
| COc1ccc(CCNC(=O)CSCc2nc(-c3ccc(OC)c(OC)c3)oc2C)cc1OC | -0.7 |
| CCOc1ccc(-c2oc3ccccc3c(=O)c2O)cc1OCC | -3.27 |
| CCn1ccnc1CN(C)CC1(O)CCCN(Cc2ccc(C(C)C)cc2)C1=O (stereo not drawn) | -0.1 |
| CCOc1ccc2nc(N3CCCC(C(=O)NCCc4ccc(OCC)c(OCC)c4)C3)sc2c1 (stereo not drawn) | -2.37 |
| Cc1cc(OCC(=O)Nc2cc(-c3nc4ccccc4[nH]3)ccc2C)ccc1Cl | 0.4 |
| CCOC(=O)c1c(C)oc2ncnc(N3CCN(c4ccc(C)cc4C)CC3)c12 | -0.68 |
| COc1cc2c(cc1OC)C1(CCN(c3ncnc(C)c3C)CC1)OCC2 | -1.88 |
| CCc1cccc(NC(=O)C(NS(=O)(=O)c2ccc3nc(C)sc3c2)C(C)C)c1 (stereo not drawn) | -1.9 |
| O=C1c2ccccc2-c2onc3c(Br)cc(NC4CCCCC4)c1c23 | -0.65 |
| CCOc1ccc(Nc2c(S(=O)(=O)c3ccc(Cl)cc3)cnc3ccc(OC)cc23)cc1 | 0.54 |
| COc1ccccc1CCNC(=O)CCCn1c(=O)c2cccn2c2cccnc21 | 0.34 |
| CNC(=O)CN(C)Cc1nc(-c2ccc(OC)c(C)c2C)oc1C | -1.15 |
| CCCC12CN3CC(CCC)(CN(C1)C3c1ccccn1)C2=O (stereo not drawn) | -1.05 |
| Cc1cc(C)c(C(=O)N2CCC3(CCC(=O)N(CCCO)C3)CC2)cc1C | 0.37 |
| COc1cc(CN2CC(C(=O)O)C3(CCOCC3)C2)ccc1OCC(C)C (stereo not drawn) | -0.3 |
| Cc1cccc(Nc2nc3ccccc3n3c(N)nnc23)c1 | -0.99 |
| COc1ccc(N(CC(=O)Nc2cc(C)ccc2C)S(=O)(=O)c2ccc(OC)c(OC)c2)cc1 | -1.37 |
| CCOC(=O)/C(C#N)=C/c1ccc(-c2ccc(C)cc2)o1 | -23 |
| CCOc1ccccc1NC(=O)c1c(NC(=O)c2ccccc2C)sc2c1CCC(C)C2 (stereo not drawn) | -1.24 |
| COC(=O)c1sc(-c2ccccc2)cc1NC(=O)c1cccc(Cl)c1 | -0.49 |
| COc1ccc2c(C)cc(SCC(=O)Nc3nsc(-c4ccc(C(C)(C)C)cc4)n3)nc2c1 | 0.07 |
| COCCN(C)CC(=O)NCCc1c(C)[nH]c2c(F)cc(F)cc12 | 0.41 |
| C[C@@H]1O[C@@H](O[C@H]2C[C@@H](O)[C@]3(CO)C4C(CC[C@]3(O)C2)[C@@]2(O)CC[C@H](C3=CC(=O)OC3)[C@@]2(C)C[C@H]4O)[C@H](O)[C@H](O)[C@H]1O (stereo partly drawn) | 0.49 |
| COc1ccc(S(=O)(=O)c2cnc3cc(OC)c(OC)cc3c2N2CCCC(C)C2)cc1 (stereo not drawn) | -0.85 |

Next section:
| mol | fixLJ activator |
| --- | --- |
| COCCNc1nc2c(c(=O)n(C)c(=O)n2C)n1Cc1c(F)cccc1Cl | -1.6 |
| Cc1oc(C)c2c(=O)cc(-c3ccc4c(c3)OCO4)cc(OC(=O)c3cccc(Br)c3)c12 | 0.2 |
| COc1ccc2cc3c(N)nn(C(=O)c4ccccc4Cl)c3nc2c1 | -1.32 |
| Cc1[nH]n2c(=O)cc(-c3ccccc3Cl)nc2c1-c1ccccc1 | -0.24 |
| CCOc1ccccc1CNC(=O)c1ccc2nc(N3CCC(C)CC3)sc2c1 | -0.29 |
| CCOC(=O)C1CCN(c2nc3c(S(=O)(=O)c4ccc(CC)cc4)nnn3c3ccc(Cl)cc23)CC1 | 1.24 |
| CO[C@@]12CCC(Oc3ccccn3)CC1N(C(=O)c1ccc(C)nc1)CC2 (stereo partly drawn) | -1.13 |
| Cc1ccc(Cl)cc1NC(=O)C1CCCN(S(=O)(=O)c2cccc3cccnc23)C1 (stereo not drawn) | -0.1 |
| CCc1ccc(NC(=O)C2CCCN(S(=O)(=O)c3cccc4nonc34)C2)cc1 (stereo not drawn) | -0.57 |
| O=C(Nc1ccc2scnc2c1)C1CCN(C(=O)c2ccc(F)cc2)CC1 | -2.07 |
| Cc1cc2nnc(SCc3ccc(F)cc3)n2c2ccccc12 | -0.69 |
| CCCc1cc(C(=O)NC2CCOCC2Oc2ccc(C(N)=O)cc2)n[nH]1 (stereo not drawn) | 0.17 |
| CCOc1ccc(S(=O)(=O)c2c(C(=O)c3ccc(CC)cc3)cnc3ccc(C)cc23)cc1 | -1.2 |
| O=C(Nc1cccc(C(F)(F)F)c1)c1ccc2snnc2c1 | -0.92 |
| Cn1cnnc1SCC(=O)Nc1ccc(C#N)cc1 | -2.53 |
| Clc1ccc2c(c1)NC(c1ccncc1)=NC(c1cccs1)=N2 | 0.21 |
| CCCCNC(=O)C1CCN(Cc2nc(-c3ccc(OC)c(OC)c3)oc2C)CC1 | -0.66 |
| COCC(C)N(Cc1ccc(SC)cc1)C(=O)c1ccn2nnnc2c1 (stereo not drawn) | -2.52 |
| Cc1ccc(C(=O)N2CCCC(c3nccn3Cc3cscn3)C2)cn1 (stereo not drawn) | -1.55 |
| O=C(Cn1ncc2ccsc2c1=O)N1CCN(c2ccccc2F)CC1 | -0.44 |
| Cc1cccc(C(CC(=O)NCC2(c3ccccc3)CCCC2)c2ccccc2)c1O (stereo not drawn) | 2.96 |
| COCCNC(=O)CCC(=O)NNc1nc2ccccc2c2nc(C)nn12 | -1.05 |
| Cc1ccc(C)c(Cn2c3ccccc3c3cnn(CC(=O)NCc4ccccc4)c(=O)c32)c1 | -2.4 |
| Cc1cccc(CN2CCN(C(=O)c3cn[nH]c3-n3cnnn3)C(C)C2=O)c1 (stereo not drawn) | -2.44 |
| COc1nc2c(cc1CNCc1ccc3nsnc3c1)C(=O)N(C(C)C)C2 | -1.28 |

Going on with the list:
| mol | fixLJ activator |
| --- | --- |
| CCc1cc(NCc2nc(-c3cccnc3)no2)n2nccc2n1 | -0.63 |
| Cc1ccc(C)c(CN2C(=O)CSc3ccc(C(=O)NCCc4ccc(Cl)cc4)cc32)c1 | -0.62 |
| CC(C)c1nc(CCNC(=O)Nc2ccc(C(F)(F)F)cc2)no1 | -0.89 |
| Cc1nc2cc(-c3ccccc3)nn2c(C)c1CCC(=O)Nc1ccc(F)cc1F | -1.27 |
| Cc1c(Cl)cccc1NC(=O)CN(CCc1ccccc1)S(=O)(=O)c1ccccc1 | 1.78 |
| CCOc1ccc(-n2nc(CO)c(C(=O)NCc3cccc(OC)c3)n2)cc1 | 0.62 |
| CC(C)CC(N(C)C)C1(c2ccc(Cl)cc2)CCC1 (stereo not drawn) | -1.53&-3.69 |
| CCOC(=O)c1ccc(NC(=O)c2cc3c(=O)n(C)c4ccccc4c3n2C)cc1 | -2.47 |
| Cc1ccccc1C(=O)Nc1sc2c(c1C(=O)N1CCCCC1)CCC(C)C2 (stereo not drawn) | -2.6 |
| Cc1nnc(N2CCN(c3ccccc3F)CC2)c2c1nnn2Cc1ccccc1 | -0.13 |
| CCOC(=O)c1cnc2ccc(C)cc2c1Nc1ccc(OCc2ccccc2Cl)cc1 | 2.07 |
| COc1ccc(CCNC(=O)CSc2cn(CCNC(=O)c3ccccc3F)c3ccccc23)cc1OC | 1.18 |
| O=C(COC(=O)c1cccc(NC(=O)c2ccc(Br)cc2)c1)c1ccc(Br)cc1 | -2.04 |
| CCN1CC2(CCC1=O)CCN(C(=O)c1cc(-c3ccccn3)n[nH]1)CC2 | -2.14 |
| C=C1/C(=C/C=C2/CCC[C@]3(C)[C@@H]([C@H](C)CCCC(C)C)CC[C@@H]23)C[C@@H](O)C[C@@H]1O | -3.85 |
| CC(C)N(C(=O)CSc1nc2ccc(Cl)cc2[nH]1)c1ccccc1 | 2.09 |
| COc1ccc(Nc2nc3c(S(=O)(=O)c4ccccc4)nnn3c3ccc(Cl)cc23)c(OC)c1 | 0.86 |
| CCO/C([O-])=N/c1c[n+](N2CCOCC2)no1 | -1.31&-0.9 |
| COc1ccc(C)cc1NC(=O)CN(C)S(=O)(=O)c1ccc2c(c1)c(=O)n(C)c(=O)n2C | -0.22 |
| O=C1c2[nH]nc(-c3ccccc3O)c2C(c2cccc(Cl)c2)N1Cc1cccnc1 (stereo not drawn) | -2.02 |
| COc1ccc(Cl)cc1NC(=O)Cn1c(=O)n(CCC(=O)NCc2ccc3c(c2)OCO3)c(=O)c2ccccc21 | -1.01 |
| Cc1cccc(C(NC(=O)c2ccnc(C(C)C)n2)C2CC2)n1 (stereo not drawn) | -1.02 |
| CC(C)c1ccc(NC(=O)Nc2csc3c2CCCC3)cc1 | -0.9 |
| Cc1cccc(-c2nc(Cn3c(SCc4cccc(C(F)(F)F)c4)nc4ccncc43)c(C)o2)c1 | 0.16 |
| CC(O)(CS(=O)(=O)c1ccc(F)cc1)C(=O)Nc1ccc(C#N)c(C(F)(F)F)c1 (stereo not drawn) | -1.91 |

Next section
| mol | fixLJ activator |
| --- | --- |
| O=C(Nc1ccc(Br)cc1)c1cc2nc(-c3ccccc3)cc(-c3ccccc3)n2n1 | 0.18 |
| NC(=O)COc1ccc(-c2noc(COc3ccc(Cl)cc3)n2)cc1 | 0.24 |
| CCCCCn1c(=N)c(S(=O)(=O)c2ccccc2)cc2c(=O)n3ccccc3nc21 | -2.33 |
| CC(O)CN(C)Cc1c(C(=O)N2CCCCCCC2)nc2sccn12 (stereo not drawn) | 1.17 |
| Cc1cc(C)nc(NS(=O)(=O)c2ccc(N)cc2)n1 | -0.02 |
| CCOCCCNC(=O)C(c1ccc(OC)cc1)N(Cc1cccs1)C(=O)c1ccccc1O (stereo not drawn) | -1.57 |
| CSc1nn(Cc2ccc(F)cc2)c(N(C(C)=O)C(C)=O)c1S(=O)(=O)c1ccccc1 | -1.48 |
| CCCc1cc(=O)oc2c(C)c3c(cc12)CN(CCc1ccc(Cl)cc1)CO3 | -2.07 |
| CCOC(=O)C1CCN(c2cc3c(cc2NC(=O)c2ccc(OC)c(OC)c2)n(C)c(=O)n3C)CC1 | -1.76 |
| COCC(=O)N1CC[C@]2(O)CCN(Cc3nc(CSC)no3)C[C@@H]2C1 | 0.01 |
| CCOc1ccc(CCCC(=O)N2CC(O)C(Cc3cc(C)no3)C2)cc1C (stereo not drawn) | -0.06 |
| COC(=O)c1cc2occc2n1Cc1nc(-c2cccc(Br)c2)oc1C | -1.86 |
| COC(=O)Cn1c(=O)c2cccn2c2cccnc21 | -1.04 |
| COC(=O)c1cc2oc3ccccc3c2n1CC(=O)Nc1ccc(F)c(Cl)c1 | -1.99 |
| CCOc1ccc(NC(=O)CCCn2c(C)c3cnn(-c4ccccc4)c(=O)c3c2C)cc1 | -2.61 |

4 of the compounds above, as labelled records.
Cc1cc(C)nc(NS(=O)(=O)c2ccc(N)cc2)n1
  fixLJ activator: -0.02

Cc1cc(C)c(C(=O)N2CCC3(CCC(=O)N(CCCO)C3)CC2)cc1C
  fixLJ activator: 0.37

O=C(Nc1cccc(C(F)(F)F)c1)c1ccc2snnc2c1
  fixLJ activator: -0.92

CCOC(=O)CCn1cnc2onc(-c3cc(OC)ccc3Cl)c2c1=O
  fixLJ activator: -0.97
